Screens as filed in PubChem.
NPYLR7 ag = agonists of mosquito NPYLR7 receptor, primary screen, cell-based, Aedes aegypti, calcium fluorescence, mosquito biting behavior. Aedes aegypti neuropeptide Y-like receptor 7 (NPYLR7). HEK293T NPYLR7/Galpha15, GCaMP6s calcium fluorescence. 0.15% of 270,000 active. activation, % at 10 µM; in the data active = activation above about 40%;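 note: 0% = vehicle and 100% = reference agonist at the receptor; some compounds past the cut are filed as inactive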
NPYLR7 ag max-min = also measured in NPYLR7 ag; calls as there; activation, %; measured here: Max-Min RFU normalised activation; some inactives read as strong as hits;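 span of the calcium signal over five minutes; 0% = vehicle and 100% = native peptide agonist; compound fluorescence can raise it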
* hit, by the source's call; & = joins results of further samples. Some of the compounds tested. The share of hits here may be higher or lower than overall.

SMILES | NPYLR7 ag | NPYLR7 ag max-min
Cc1ccc(NC(=O)Cn2nc(C)c([N+](=O)[O-])c2C)nc1 | 3.6 | 0.3
Cc1cn2c3c(=O)n(C)c(=O)n(C)c3nc2n1-c1ccccc1OCCN1CCCCC1 | 2.7 | 5.7
CSCc1ccc(C(=O)N(C)Cc2nc3ccc(C)cc3[nH]2)o1 | -4.0 | -5.7
CCOC(=O)C1=C(C)N=c2s/c(=C/c3ccc(C)cc3)c(=O)n2C1c1ccc(Cl)cc1 (centres undefined) | -5.4 | -11.7
CCONC(=O)c1csc(CSc2nnc(-c3cccnc3)n2-c2ccccc2C)n1 | -2.6 | 5.9
COc1ccc(Cl)cc1C(=O)C1CCCN(Cc2cccc3c2OCO3)C1 (centres undefined) | -4.6&8.0 | -7.3&7.6
CCCCSc1nnc2c(n1)OC(c1ccc(C(C)C)cc1)Nc1ccccc1-2 (centres undefined) | 0.9 | -4.2
O=S(=O)(c1ccc(F)c(F)c1)N1CCN(c2ccc(O)cc2)CC1 | -0.4&1.2 | -1.1&-0.8
CCC(C(=O)NCc1nnc(SCc2cccc(OC)c2)n1-c1ccc([N+](=O)[O-])cc1)c1ccccc1 (centres undefined) | 11.1 | 9.2
CC(C)CCN(Cc1ccc(Cl)c(Cl)c1)C(=O)c1n[nH]c(=O)[nH]1 | -1.4 | -1.2
CCOC(C)C(=O)NC(C)c1cc2c(cc1Br)OCCO2 (centres undefined) | 13.2 | 9.7
CCc1nc(CNC(=O)Nc2ccc3c(c2)CCO3)cs1 | 5.6 | 3.7
Cc1[nH]n2c(=O)cc(-c3ccccc3)nc2c1-c1ccc(F)cc1 | -0.9 | -0.6
CS(=O)(=O)Nc1ccc(OC(F)F)c(Cc2ccccc2)c1 | 6.1 | 2.1
CC(=O)c1[nH]c(C)c(C(=O)N(C)Cc2sccc2C)c1C | -18.5 | -18.6
COC(=O)c1ccc2c(c1)CC(CNC(=O)c1ccc(Br)c(C)c1)O2 (centres undefined) | 1.6 | 1.5
O=C(c1ccc(F)cc1)N1CCSC1c1cccc(OCc2ccccc2)c1 (centres undefined) | 18.1 | 16.4
CCN1CCN(C(c2ccc(F)cc2)C2Sc3nc(C)nn3C2=O)CC1 (centres undefined) | 2.4 | -0.2
COc1ccc(C(=O)N2CCN(C(=O)CSc3nnc(Cc4ccccc4)n3-c3cccc(C)c3)CC2C)cc1 (centres undefined) | 1.0 | 8.1
COc1cccc(C(C2Sc3ncnn3C2=O)N2CCC(C)CC2)c1 (centres undefined) | 2.9 | 4.4
CN(C)c1ccc(NC(=O)C2CCCC2)cc1CN(CC1CCCO1)S(=O)(=O)c1ccc(F)cc1 (centres undefined) | 3.5 | 7.8
Oc1ccc(Br)cc1/C=N\Nc1cc(N2CCOCC2)nc(N2CCOCC2)n1 | -4.3 | -8.5
c1coc(C2=Nc3ccccc3SC(c3cccs3)C2)c1 (centres undefined) | 10.8 | 5.8
Cc1cc(C(C#N)C(=O)CNC(=O)OCc2ccccc2)nc(C)n1 (centres undefined) | 10.7 | 9.4
Cc1cc(O)c(C(c2cccnc2)N2CCN(CCO)CC2)c(=O)n1Cc1ccccc1 (centres undefined) | 22.2 | 15.3
C=CCn1c(SCc2nccn2C(F)F)nc2ccc(Cl)cc2c1=O | 3.5 | -2.9
CCS(=O)(=O)Oc1cccc(CN(Cc2ccco2)C(=O)Nc2ccc(C)cc2C)c1 | 8.6 | 8.4
FC(F)(F)c1cccc(-c2nnn3c2nc(Cl)c2ccccc23)c1 | -6.8 | -9.7
CCCCS(=O)(=O)Nc1ccc(NS(=O)(=O)CCCC)cc1 | 0.7 | 8.3
COc1ccc(CSc2nnc(N)s2)cc1F | 2.8 | -2.0
O=C(CSCC(=O)N1CCOCC1)Nc1ccc2cn[nH]c2c1 | 8.7 | 4.9
CCC(C)c1ccc(NC(C)c2nc3sc(C)c(C)c3c(=O)[nH]2)cc1 (centres undefined) | 5.2 | 0.1
COc1ccc(-c2nc3sc(CCNS(=O)(=O)c4ccc5ccccc5c4)c(C)n3n2)cc1 | 2.6 | 1.1
c1ccc(-c2noc3nc(NCCc4ccccn4)ccc23)cc1 | 3.7 | 2.9
CCN(C(=O)c1cc(COC)on1)C(C)C(C)C (centres undefined) | -0.2 | -3.5
CCc1ccc(NC(=O)CSc2nc(=O)n3ccccc3n2)cc1 | 0.8 | -2.4
Cc1c(Br)c([N+](=O)[O-])nn1CC(=O)N1CCN(Cc2ccccc2)CC1 | 3.6 | 5.3
CCCCc1nc(N2CCCN(C(=O)COc3ccc(Cl)cc3)CC2)c2c(C)nn(-c3ccc(F)cc3)c2n1 | 6.9 | 7.2
CCN(c1ccccc1)S(=O)(=O)c1cc(NC(=O)C2CC2)ccc1Cl | 0.8 | -2.3
CN(C)c1ccc(C(=O)N2N=C3CCCCCC3C2(O)C(F)(F)F)cc1 (centres undefined) | 0.7 | 0.3
CC(C)(C)P(=NC(=S)N1CCN(c2ccccc2)CC1)(N1CCOCC1)N1CCOCC1 | 0.4 | 2.3
COc1ccccc1N(C)C(=O)c1ccc(-n2c(C)ccc2C)cc1 | 6.4 | 5.1
CCC(C)c1ccc(OCCOc2c(Cl)cc(C=C3C(=O)NC(=S)NC3=O)cc2OC)cc1 (centres undefined) | -6.9 | -9.5
CC1Sc2ccccc2N(Cc2cccc(F)c2)C1=O (centres undefined) | 8.5 | 6.7
CN1CCN(CCCNC(=O)C2CC(=O)N(C3CCCC3)C2)CC1 (centres undefined) | -2.9 | -4.2
Cc1ccc(Cl)cc1N1CCN(c2nc3c(c(=O)[nH]c(=O)n3C)n2CC(=O)O)CC1 | -10.7 | -13.4
COc1ccc(-c2ccc3nnc(SCC(=O)N4CCCC4)n3n2)cc1 | -18.5 | -13.4
COc1ccc(N2CCN(C(=O)CN(Cc3ccccc3)c3nc(Cc4ccc(C)cc4)ns3)CC2)cc1 | -9.5 | -9.7
CN(C)c1nc(-c2ccccn2)nc2c1CCN(C(=O)C1CC1(C)C)C2 (centres undefined) | 0.4 | -3.0
CC(C)OC(=O)C(C(=O)C(F)(F)F)c1cc(NS(=O)(=O)c2ccc(C(C)C)cc2)ccc1O (centres undefined) | -1.6 | 3.4
O=C(Nc1cc2c(cc1Cl)OCO2)c1csc(-c2ccccc2)n1 | 4.4 | 1.8
Cc1nc(-c2cc(C)n(CC(=O)N=c3sccn3C)c2C)cs1 | 6.3 | 6.8
O=C(NCCSCc1ccsc1)C1CCN(S(=O)(=O)c2cccs2)CC1 | 6.4 | 3.8
FC(F)(F)c1ccc(-c2noc(CN3CCC(N4CCSCC4)CC3)n2)cc1 | 3.6 | 3.0
O=C(Nc1ccc(O)c(-c2nc3ccccc3o2)c1)c1cccc([N+](=O)[O-])c1 | -8.9 | -15.2
CC1(C)OC(/C=C/c2ccc(O)cc2)=CC(c2ccccc2)=[O+]1 | 33.2 | 35.3
CN1CCN(NC(=O)c2csc(-c3cc4ccccc4[nH]3)n2)CC1 | 9.3 | 6.5
O=C(c1ccccc1)C1CCN(C(=O)CC2COCCN2)CC1 (centres undefined) | -4.9 | -5.3
Cc1csc(NC(=O)CSc2nc(-c3ccccc3)nc3c2c(=O)n(C)c(=O)n3C)n1 | 8.7 | 11.7
Cc1ccc(Cn2nc(-c3ccc(Br)cc3)ccc2=O)cc1 | 3.3 | 2.1

Three records drawn at random from those above:
SMILES | NPYLR7 ag | NPYLR7 ag max-min
CN1CCN(CCCNC(=O)C2CC(=O)N(C3CCCC3)C2)CC1 (centres undefined) | -2.9 | -4.2
COc1ccc(N2CCN(C(=O)CN(Cc3ccccc3)c3nc(Cc4ccc(C)cc4)ns3)CC2)cc1 | -9.5 | -9.7
CCC(C)c1ccc(OCCOc2c(Cl)cc(C=C3C(=O)NC(=S)NC3=O)cc2OC)cc1 (centres undefined) | -6.9 | -9.5

Returning to the listing, starting 3 compounds before the break.
SMILES | NPYLR7 ag | NPYLR7 ag max-min
O=C(c1ccccc1)C1CCN(C(=O)CC2COCCN2)CC1 (centres undefined) | -4.9 | -5.3
Cc1csc(NC(=O)CSc2nc(-c3ccccc3)nc3c2c(=O)n(C)c(=O)n3C)n1 | 8.7 | 11.7
Cc1ccc(Cn2nc(-c3ccc(Br)cc3)ccc2=O)cc1 | 3.3 | 2.1
CCOc1cc(C(=O)N2CCOC(COc3ccc(Cl)c(C)c3)C2)ccc1OC (centres undefined) | 1.4 | -3.7
CCNC(=O)Nc1ccc(N(C)C)c(CN(CC2CC2)C(=O)C(C)C)c1 | -22.8 | -15.9
Cc1ccc(C(=O)NCC(O)c2ccc(F)c(F)c2)cc1 (centres undefined) | 2.0 | 0.3
COc1cccc(NC(=O)C2(C)CCN2C2Cc3ccccc3C2)c1 (centres undefined) | 3.7 | 0.1
CCNC(=O)C(=O)NCc1csc(Br)c1 | -7.4 | -8.3
c1ccc(CN2CCN(Cc3ccccc3)C2c2ccc[nH]2)cc1 | -11.0 | -15.6
CN(CCn1ccc2ccccc21)C(=O)c1nc(N)n[nH]1 | -2.9 | -8.9
COCCCN(Cc1cccn1Cc1ccccc1Cl)C(=O)Nc1c(Cl)cccc1Cl | 13.0 | 10.5
O=C(CCc1ccccc1)N1CCC2(CC1)OCc1cc(-c3cccc(F)c3)ccc1O2 | -3.8 | -12.4
COc1ccc(S(=O)(=O)Oc2ccc(CN(C(=O)c3ccco3)C3CC3)cc2)cc1 | -1.3 | 0.5
Cc1cc(C)n(-c2ccc(N3CCN(S(=O)(=O)c4ccc(-c5ccccc5)cc4)CC3)nn2)n1 | -0.1 | -8.4
Cn1cccc1C(=O)NC(=O)COC(=O)C=Cc1ccc(Br)o1 | 8.1 | 14.0
CCN(CC)c1cc(COC)nc(SCc2cccc(C(=O)NCc3ccccn3)c2)n1 | 8.8 | 4.9
CCOCCn1cc(C2CCN(C(=O)Cc3cccs3)CC2)c2ccccc21 | 5.8 | 4.3
CC1Oc2ccccc2OC1C(=O)OC(C(N)=O)c1ccccc1 (centres undefined) | 6.4 | 2.9
Brc1cccc(-c2noc(CSc3nnnn3C3CC3)n2)c1 | 3.8 | 0.4
Nc1nc(N2CCOCC2)cc(N2C[C@H](O)[C@@H](N3CCCCC3)C2)n1 | -4.0 | 3.4
CCn1c(C)cc(O)c(C(c2ccc(SC)cc2)N2CCN(CCO)CC2)c1=O (centres undefined) | 18.7 | 9.3
O=C(NCC(F)(F)F)c1cc(COc2ccc3c(c2)OCO3)[nH]n1 | 17.3 | 2.4
O=C(COc1ccc(Br)cc1F)Nc1nc(C2CC2)cs1 | -0.4 | -1.4

Exported as a markdown table: five of the compounds above
| canonical_smiles | NPYLR7 ag | NPYLR7 ag max-min |
| --- | --- | --- |
| COc1ccc(S(=O)(=O)Oc2ccc(CN(C(=O)c3ccco3)C3CC3)cc2)cc1 | -1.3 | 0.5 |
| COc1cccc(NC(=O)C2(C)CCN2C2Cc3ccccc3C2)c1 (centres undefined) | 3.7 | 0.1 |
| CCOc1cc(C(=O)N2CCOC(COc3ccc(Cl)c(C)c3)C2)ccc1OC (centres undefined) | 1.4 | -3.7 |
| Brc1cccc(-c2noc(CSc3nnnn3C3CC3)n2)c1 | 3.8 | 0.4 |
| Cc1ccc(C(=O)NCC(O)c2ccc(F)c(F)c2)cc1 (centres undefined) | 2.0 | 0.3 |

The results go on:
SMILES | NPYLR7 ag | NPYLR7 ag max-min
C=CCOC(=O)C1C(C)=NC2=C(C(=O)CCC2)C1c1ccc(C)cc1 (centres undefined) | -3.0 | -8.5
Cn1c(O)c2ccc(C(=O)N=NC(=O)c3cc4c(s3)CCCC4)cc2c1O | 0.9 | 0.1
COc1ccc(C=NOCC(=O)N=Nc2c(O)n(CN3CCN(C)CC3)c3ccccc23)cc1 | 7.4 | -0.9
COC(CN(C)S(=O)(=O)c1cc2c3c(c1)CCN3C(=O)CC2)OC | 1.8 | 1.2
CC(C)CNC(=O)C(NC(=O)CC(C)C)C1CCN(C(=O)C2CCCC2)CC1 (centres undefined) | 12.3 | 12.7
CCSc1nc(NCC(C)C)c2cnn(CCNC(=O)c3ccc4c(c3)OCO4)c2n1 | -2.1 | -3.3
N#Cc1ccccc1/C=C/C(=O)NCCN1CCc2ccccc2C1 | 8.6 | 4.8
Cc1c(Br)c(C(F)(F)F)nn1CC(=O)Nc1cccc(O)c1 | -2.6 | -2.1
COc1cc(C(=O)N2CCC(C(=O)O)CC2)cc(OC)c1C | 2.6 | 0.0
COc1ccccc1CN(Cc1ccccc1)CC(O)Cc1ccccc1 (centres undefined) | 34.2 | 24.0
O=C(NCCOc1ccccc1)c1ccc2nc(Cc3ccccc3F)oc2c1 | 14.1 | 2.8
CC(C)NC(=O)C1CCCN(Cc2cccc(F)c2)C1 (centres undefined) | 6.0 | 0.8
CS(=O)Cc1cccc(C(=O)NNC(=O)C23CC4CC(CC(C4)C2)C3)c1 (centres undefined) | -1.3 | 1.3
